# RN4220 kill: S. aureus RN4220 growth inhibition | OD600, 16 h | inhibition, % (test concentration not listed) | 0.33% of 330,000 active;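 active means z-score of -3 or lower and OD600 up to 0.18 on both plates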;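 further: plate controls were untreated cells for no effect and reference antibiotic for full effect; stock transfer was 100 nL into about 80 µL; one replicate is shown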
# Autofluor counter: flagged as autofluorescent in microsphere protease counterscreen; compound autofluorescence counterscreen, microsphere flow cytometry; active compounds read high; fluorescence intensity (no concentration beside the values); 3.1% of 360,000 active; AID 624483;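 active means at least 3 SD above the mean of all compounds, about 16000 in these data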;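 further: 100 nL of 1 mM stock went into each well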
# Mtb hypoxia rep: Mtb hypoxia fluorescent reporter inhibition. M. tuberculosis hypoxia-regulated fluorescent reporter, fluorescence. fluorescence inhibition, % (no concentration beside the values). 0.1% of 300,000 active. AID 1159583;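 active means 35 to 45% if threefold the growth effect, above 45% if 1.5-fold the growth effect; inactive means the rest, general growth blockers included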;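 further: wells of about 50 µL received 100 nL stock; 0% = vehicle wells and 100% = reference inhibitor wells; whole bacteria with a GFP reporter of the hypoxia response; strong numbers were not always called active; many hits fall short of the cut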
# BJeLR lethal: BJeLR cell viability loss | BJeLR (HRASV12) viability, CellTiter-Glo ATP luminescence, 48 h; reference of the scale not given here | inhibition, % (test concentration not listed) | 0.17% of 300,000 active | AID 1554;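 active means replicate mean above 50%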;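 further: 50 nL library stock added to about 25 µL; numbers are from one replicate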
# Sa ugtP lethal: growth inhibition of S. aureus ugtP deletion strain | S. aureus RN4220 ugtP deletion, OD600 growth, 16 h; some inactives read as strong as hits | growth inhibition, % (no concentration beside the values) | 0.54% of 330,000 active | AID 1259309;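 active means z-score under -3 and OD600 up to 0.15 on both plates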;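 further: plate controls were untreated wells for no effect and antibiotic for full effect; wells of about 80 µL received 100 nL stock; the first replicate is given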
# PrP UTR inh: suppresses PrP 5' UTR mRNA reporter expression | cell-based PrP 5' UTR mRNA reporter, plate reader | AID 488862 | inhibition, % (test concentration not listed) | 0.35% of 340,000 active;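 active means every replicate at 50% or more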;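 further: 0 = median of the neutral control wells; tested in H4 reporter cells; numbers are from one replicate; inactives centre near -14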
# Mtb hypoxia rep growth: recorded beside Mtb hypoxia rep, whose call it bears; growth inhibition, %; measured here: M. tuberculosis growth (absorbance);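 0% = vehicle and 100% = reference antibiotic; read after six days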
# Active calls of the source: *; . = not tested or not shown.
SMILES,RN4220 kill,Autofluor counter,Mtb hypoxia rep,Mtb hypoxia rep growth,BJeLR lethal,Sa ugtP lethal,PrP UTR inh
O=C(c1ccco1)N(Cc1ccco1)c1ccc(O)cc1,2.6,2736,3,-4,-4,-6,-23
COC(=O)c1scc(S(=O)(=O)C(C)(C)C)c1-n1cccc1,3.1,6175,-8,-8,-11,4,-14
COc1ccc2oc(C(=O)OCC(=O)N3CCN(S(=O)(=O)c4ccccc4)CC3)c(C)c2c1,1.3,5227,6,6,4,6,-29
O=[N+]([O-])c1cc(Cl)ccc1NCCNc1ncc(C(F)(F)F)cc1Cl,0.7,2310,.,.,-6,-23,-26
CN(C(=O)Nc1cccc(C(F)(F)F)c1)C1CCCCC1,5.2,5110,4,9,3,8,-75
CCOc1nc(C)ccc1-c1noc(-c2ccccc2OC)n1,-7.6,4648,1,17,-9,-17,-11
CC(C)NC(=O)[C@H](CSCc1ccccc1)N1Cc2ccccc2C1=O,5.3,4650,.,.,-5,-7,-29
O=C(CC(=O)N/N=C\c1ccccc1)NCCc1ccccc1,.,3638,.,.,-9,.,-11
O=C1C=CC(=Nc2ccc3c(c2)Cc2ccccc2-3)O1,-0.4,3878,19,7,.,-5,-32
CCOC(=O)/C(=N/Nc1ccc(Cl)cc1)S(=O)(=O)c1ccc(Cl)cc1,.,7426,.,.,-3,.,-23
Cc1cccc(-c2nnc3n2N=C(c2ccc(Br)cc2)CS3)c1,3.7,.,14,-1,-1,0,.
N#Cc1ccc(Oc2ccc(NC(=O)C3CC=CCC3C(=O)O)cc2)cc1 (configuration not stated),.,4500,.,.,-5,.,12
Cc1ccc(S(=O)(=O)N(CC(=O)NC2CC2)c2ccc(C)c(Cl)c2)cc1,0.7,5804,8,8,-8,-2,-2
Cc1ccc(O)c(NC(=O)/C=C/C(=O)O)c1,7.2,8302,-4,5,2,2,-15
O=C(C1CCCN(Cc2ccccc2F)C1)N1CCCCC1 (configuration not stated),1.6,3740,-4,3,10,7,3
O=C(COC(=O)c1ccccn1)NCCc1ccc(Cl)cc1,2.4,3377,12,13,.,13,-26
COc1ccc(C=Nn2c(-c3cc(C)[nH]n3)n[nH]c2=S)cc1,2.6,.,11,-3,.,20,.
CSc1ncccc1C(=O)NNc1cc(Cl)ccc1Cl,4.4,3417,7,6,8,3,-1
CCSc1nnc(-c2cccnc2)n1Cc1ccco1,7.7,9902,0,5,-2,-5,.
Cc1cc(/C=C2\SC(=S)N(Cc3ccco3)C2=O)c(C)n1-c1ccccc1,-4.8,6645,10,5,-4,-3,22
N#CCCN(Cc1cccs1)C(=O)c1ccc(Cl)cc1,2.0,4276,-2,1,1,4,-2
COc1cc(Cl)ccc1S(=O)(=O)n1nc(C)cc1C,7.4,11371,3,-3,4,-3,-16
Cc1[nH]c2ccccc2c1C(=O)C(=O)NCCOc1ccccc1,0.6,4358,15,8,0,0,-14
Nn1c(SCc2cccc3ccccc23)nnc1-c1ccco1,6.3,22596*,5,17,-1,8,-14
O=C(CSc1nnc(-c2ccccc2F)o1)N1CCCC1,-1.8,5924,17,18,-8,2,-6
O=C(COC(=O)CCC(=O)c1ccc(F)cc1)NCc1ccccc1Cl,4.9,4162,6,4,.,3,-43
O=C(CN1C(=O)S/C(=C\c2ccc(F)cc2)C1=O)NCCCn1ccnc1,3.4,5544,5,4,0,2,-4
O=C(NNC(=O)C1CCCC1)c1cc([N+](=O)[O-])cc([N+](=O)[O-])c1,4.2,4499,.,.,.,8,7
COc1c(Cl)ccc(Cl)c1C(=O)NC(=O)Nc1nc(C)cc(C)n1,3.2,6791,-10,-14,0,8,-5
Nc1nc(-c2ccc(F)cc2)cs1,2.6,4990,-2,-8,-2,8,-28
O=C(NCc1cccnc1)C(=O)NCC(c1ccco1)N1CCN(c2ccccc2)CC1 (configuration not stated),5.5,11178,7,8,-9,12,-19
CCN(C(=O)c1c(C)noc1C)c1c(N)n(Cc2ccccc2)c(=O)[nH]c1=O,-0.4,.,12,8,.,0,.
Cn1cnnc1SCC(=O)Nc1ncc([N+](=O)[O-])s1,10,2922,14,15,.,9,-18
Cc1ccc(S(=O)(=O)NN=Cc2ccccc2F)cc1[N+](=O)[O-],13,.,20,3,.,5,.
O=C(N=C1SC2CS(=O)(=O)CC2N1c1ccccc1)c1ccccc1 (configuration not stated),7.8,4092,13,10,.,10,-16
COc1cc(C(=O)NCCNC(=O)C2CCCNC2=O)cc(OC)c1OC (configuration not stated),1.4,4105,7,16,7,-1,-10
Cn1c(CCN2CCCCC2)nc2cc(NC(=O)Nc3ccccc3)ccc21,3.6,4008,8,-3,-17,19,-21
CC1CC(C)CN(S(=O)(=O)CC23CCC(CC2=O)C3(C)C)C1 (configuration not stated),8.9,3818,-6,9,-4,5,-12
Cc1cc(C(=O)NNC(=O)c2ccccc2O)c(C)o1,1.8,3508,2,5,.,0,-28
Cc1ccc(S(=O)(=O)N=C2C=C(Sc3ncn[nH]3)C(=O)c3ccccc32)cc1,30,.,4,-1,.,-11,.
COc1ccc(N2CCN(C(=O)CCc3nnc4ccc(N5CCC(C)CC5)nn34)CC2)cc1,0.8,4354,-3,7,-10,-3,4
O=C(O)c1cccc(-c2ccc(/C=N/Nc3nn[nH]n3)o2)c1,.,3329,.,.,-1,.,-10
CCOn1c(=O)c(-c2ccc(F)cc2)[n+]([O-])c2ccccc21,3.0,3997,-1,-3,0,8,-16
O=C(NCc1ccccc1)c1c(O)c2cccc3c2n(c1=O)CCC3,3.2,2778,8,14,2,3,-20
Cn1c(CN2CCN(c3ccc(Cl)cc3)CC2)nc2ccccc21,-1.5,6902,4,1,-2,-5,-24

# Quoted at random: 3 compounds from above, in no set order.
SMILES,RN4220 kill,Autofluor counter,Mtb hypoxia rep,Mtb hypoxia rep growth,BJeLR lethal,Sa ugtP lethal,PrP UTR inh
CCN(C(=O)c1c(C)noc1C)c1c(N)n(Cc2ccccc2)c(=O)[nH]c1=O,-0.4,.,12,8,.,0,.
Cc1cc(C(=O)NNC(=O)c2ccccc2O)c(C)o1,1.8,3508,2,5,.,0,-28
O=C(NCc1ccccc1)c1c(O)c2cccc3c2n(c1=O)CCC3,3.2,2778,8,14,2,3,-20

# Further structures.
SMILES,RN4220 kill,Autofluor counter,Mtb hypoxia rep,Mtb hypoxia rep growth,BJeLR lethal,Sa ugtP lethal,PrP UTR inh
CCOC(=O)C(C)n1cnc2c(nnn2-c2cccc(OC)c2)c1=O (configuration not stated),-1.1,3710,13,3,-2,3,-20
CCCn1c(=N)c(S(=O)(=O)c2ccc(F)cc2)cc2c(=O)n3ccccc3nc21,-1.7,4981,-11,-9,-5,1,5
CC1Oc2ccccc2N(CC(=O)NCc2ccc3c(c2)OCO3)C1=O (configuration not stated),3.2,4346,1,5,5,0,-26
Cc1nc2ccccc2c(=O)n1/N=C/c1ccccc1O,.,4574,.,.,3,.,-18
COc1ccccc1N1CCN(CC(=O)Nc2c(C)n[nH]c2C)CC1,2.0,4328,1,0,1,4,-32
COc1ccc(CCNc2oc(COc3ccccc3F)nc2C#N)cc1,9.2,9277,2,8,5,-10,-18
CC1(C)Cc2ccccc2-c2nnc(SCC(=O)Nc3ccc4c(c3)OCO4)n21,39,9529,11,-6,5,33,-24
O=C1Oc2ccccc2C(=O)/C1=C/N1CCN(c2ccccc2F)CC1,5.7,4004,4,2,-3,5,-17
COc1cc2[nH]c(=S)n(Cc3ccco3)c(=O)c2cc1OC,2.8,9513,2,-1,8,-9,0
NC(=O)CSCc1c(Cl)cccc1Cl,5.0,10055,2,15,0,13,-14
CC[C@@]12C(=O)N(c3cccc(Br)c3)C(=O)N1[C@H](c1ccc(OC)cc1)[C@@H]1C(=O)N(C(C)(C)C)C(=O)[C@@H]12,.,3960,.,.,-12,.,-4
O=C(NNc1nc2c(F)cccc2s1)C1COc2ccccc2O1 (configuration not stated),0.0,4579,0,0,1,0,-33
Cc1ccc(S(=O)(=O)N2CCCCC2)cc1NC(=O)Cn1cnnn1,0.6,4672,-1,-9,-12,-1,-16
Cc1cc(=O)c(C(=O)Nc2cccc(C(=O)NC3CC3)c2)nn1-c1ccccc1Cl,1.1,3365,6,1,.,-4,.
O=C(NNc1ccccc1)C(=O)NNS(=O)(=O)c1ccc(CCCl)cc1,-4.1,4541,-12,-14,0,-3,-21

# An excerpt from above in order of molecular weight, smallest number first:
SMILES,RN4220 kill,Autofluor counter,Mtb hypoxia rep,Mtb hypoxia rep growth,BJeLR lethal,Sa ugtP lethal,PrP UTR inh
N#CCCN(Cc1cccs1)C(=O)c1ccc(Cl)cc1,2.0,4276,-2,1,1,4,-2
Cc1ccc(S(=O)(=O)NN=Cc2ccccc2F)cc1[N+](=O)[O-],13,.,20,3,.,5,.
COc1ccccc1N1CCN(CC(=O)Nc2c(C)n[nH]c2C)CC1,2.0,4328,1,0,1,4,-32
COc1c(Cl)ccc(Cl)c1C(=O)NC(=O)Nc1nc(C)cc(C)n1,3.2,6791,-10,-14,0,8,-5
Cn1c(CCN2CCCCC2)nc2cc(NC(=O)Nc3ccccc3)ccc21,3.6,4008,8,-3,-17,19,-21
Cc1ccc(S(=O)(=O)N(CC(=O)NC2CC2)c2ccc(C)c(Cl)c2)cc1,0.7,5804,8,8,-8,-2,-2
Cc1cc(/C=C2\SC(=S)N(Cc3ccco3)C2=O)c(C)n1-c1ccccc1,-4.8,6645,10,5,-4,-3,22

# (more compounds)
SMILES,RN4220 kill,Autofluor counter,Mtb hypoxia rep,Mtb hypoxia rep growth,BJeLR lethal,Sa ugtP lethal,PrP UTR inh
COc1ccc(CCC(=O)N2CCN(c3cccc(C)c3C)CC2)cc1,2.4,3789,7,12,2,1,7
COc1ccc(Cl)cc1NC(=O)CSc1nnc(CN2CCOCC2)n1-c1ccc(Cl)cc1,-0.4,10232,5,10,-4,-1,.
COc1cc(/C=N\Nc2nc(-c3cccs3)c(NC(C)=O)s2)ccc1O,.,3776,.,.,11,.,5
Nc1ccccc1C(=O)OCC(=O)N1CCc2ccccc21,.,4106,.,.,5,.,-91
CCN(CC)S(=O)(=O)c1ccc(NC(=O)COC(=O)c2cnc(C)cn2)cc1,9.9,3335,7,4,2,-4,-17
COc1ccc(C(O)c2cc(OC)ccc2OP(=O)(N(C)C)N(C)C)cc1 (configuration not stated),-2.5,2415,11,10,-1,9,-8
COc1ccc(OCc2nc(N)nc(Nc3ccccc3)n2)cc1,0.8,3759,7,0,-1,-12,-35
COC(=O)c1ccccc1NC(=O)c1cccc(NC(=O)c2ccc(Br)o2)c1C,18,5995,3,0,0,12,-8
CCCCc1ccc(NC(=S)NCCc2ccc(S(N)(=O)=O)cc2)cc1,5.5,4431,16,22,12,-10,34
CCOC(=O)C1=C(O)/C(=C/c2ccc(OCC(=O)O)c(OC)c2)SC1=Nc1ccc(OC)cc1,16,3254,8,-3,1,-2,-11
